MT1-MMP promoter: inhibitors of MT1-MMP promoter transcription, cell-based, luciferase reporter, luminescence (AID 618); MT1-MMP promoter luciferase reporter cells, luminescence; calls from a first round at 10 µM; hits with a dose series show EC50 in µM; 0.62% of 87,000 active;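 active = over half of the reporter light lost at 10 µM or EC50 under 50 µM; inactive = the rest and hits that failed the dose series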;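 also: actives suppress MT1-MMP promoter-driven transcription so potencies describe inhibitors; HT1080 fibrosarcoma cells; overnight exposure; toxic or luciferase-blocking compounds were not removed from the actives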
Hsc70 ATP site: Hsc70 inhibitors, probe displacement, primary screen, biochemical, fluorescence polarization (AID 568); 83,000 tested, under 10 active; Hsc70 fluorescence polarization, probe displacement; higher % means a stronger effect; strong numbers were not always called active; Heat shock cognate 71 kDa protein (Homo sapiens); one-dose displacement, % at 20 µM; IC50 in µM for titrated hits;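 active = displacement above 50% without optical interference and an IC50 on retest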;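 also: ATPase domain with a fluorescein-tagged ATP probe; 0% = vehicle and 100% = excess ADP; read after one hour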
WNV protease inh: inhibitors of WNV NS2B-NS3 protease, primary screen, biochemical, fluorogenic substrate; fluorogenic substrate Ex360/Em465; active compounds read low; z-score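 (tested at a level between 10 and 100 µM)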; 0.18% of 65,000 active; AID 577, 2007;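 active = z-score at -3 or under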;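 also: score is relative to mean and spread of the compound wells of a plate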
Target sequence (P06935 1371-1501 limits assumed): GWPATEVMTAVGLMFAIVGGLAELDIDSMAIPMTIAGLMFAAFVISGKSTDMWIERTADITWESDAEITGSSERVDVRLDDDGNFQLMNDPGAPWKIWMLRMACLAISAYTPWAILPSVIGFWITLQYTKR
Target sequence (P06935 1502-1679 limits assumed): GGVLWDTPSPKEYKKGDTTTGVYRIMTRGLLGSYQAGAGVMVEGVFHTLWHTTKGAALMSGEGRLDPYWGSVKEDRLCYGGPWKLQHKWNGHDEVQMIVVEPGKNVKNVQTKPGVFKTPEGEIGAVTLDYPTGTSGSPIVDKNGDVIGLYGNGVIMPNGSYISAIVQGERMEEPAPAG
The depositor's hits bear a star; i = inactive; . = not tested or not shown.

SMILES	Hsc70 ATP site	WNV protease inh	MT1-MMP promoter
CN1CCN(C(c2cccc(C(F)(F)F)c2)c2nnnn2C(C)(C)C)CC1 (stereo not given)	2.4%	0.15	i
Cc1cc(Oc2ccccc2)nc(N)n1	5.8%	-0.88	i
Cn1c(Cn2c(=O)sc3ccccc32)nnc1SCC(=O)Nc1ccccc1F	1.0%	-0.22	i
Cc1ccccc1-n1nnnc1SCc1ncc(-c2ccccc2)o1	0.6%	0.22	i
CCCOc1ccc(Cn2c(=O)oc3ccc(C)cc32)cc1OC	-4.6%	0.21	i
Cn1c(=O)c2c(nc(CN3CCc4ccccc4C3)n2Cc2ccccc2F)n(C)c1=O	-1.1%	1.2	i
O=C(Nc1ccccc1)N(CCCN1CCOCC1)Cc1cccs1	5.8%	0.81	i
COc1cc2[nH]c(=O)n(Cc3ccc(C(=O)NCC4CCCO4)cc3)c(=O)c2cc1OC (stereo not given)	-5.4%	0.58	i
C=CCn1c(Cc2csc(N)n2)nnc1SCC(=O)Nc1ccccc1C(F)(F)F	5.5%	.	i
CN1C(=O)c2cccc3c(Cl)ccc(c23)C1=O	-0.2%	.	i

More structures follow.
SMILES	Hsc70 ATP site	WNV protease inh	MT1-MMP promoter
O=C(c1ccccc1)c1ccc(N2CCCC2)cc1	5.8%	0.07	i
COCCSc1nc2c(c(=O)[nH]c(=O)n2C)n1CCC(C)C	2.3%	0.88	i
O=C(CSc1ccccc1)Nc1cccnc1	-3.3%	0.61	i
CC1=C(C)CS(=O)N(c2ccc(S(N)(=O)=O)cc2)C1 (stereo not given)	6.2%	1.4	i
COC(=O)CSc1nnc(-c2cccnc2)n1-c1cccc(OC)c1	1.6%	1.3	i
Cc1ccc(S(=O)(=O)C(C#N)c2nc3ccccc3nc2N2CCCC2)cc1C (stereo not given)	38%	0.93	i
Cc1c(Cl)cccc1NC(=O)CSCc1cc(=O)[nH][nH]1	2.9%	0.39	i
CCn1c(COc2ccc(C)cc2)nnc1SCC(=O)C(C)(C)C	-10%	-0.79	i
O=c1c2c3nc4ccccc4nc3n(CCN3CCOCC3)c2ncn1CCN1CCOCC1	1.8%	-0.69	i
Cc1csc(SCc2nnc(-c3ccc(Cl)cc3)o2)n1	-0.3%	.	i

(listing goes on)
SMILES	Hsc70 ATP site	WNV protease inh	MT1-MMP promoter
COC(=O)c1cc2sccc2n1CC(=O)N1CCCc2ccccc21	-4.7%	-0.58	i
O=C1CNC(=O)c2c(nc3n2CCC3)N1	1.4%	-0.6	i
O=C(O)c1ccc2c(c1)ncn2C1CCCCCC1	-0.9%	1.3	i
c1coc(-c2nnc(-c3cccs3)o2)c1	-3.6%	0.11	i
O=C1c2ccccc2-c2onc3ccc(NCc4ccco4)c1c23	106%	-2.5	i
Cn1c(CSc2nc3ccccc3s2)nnc1SCC(=O)NCCN1CCOCC1	-0.1%	1.1	i
CC(c1ccccc1)C(CC(=O)O)C(=O)NC1CCCCC1 (stereo not given)	-3.7%	-0.35	i
Clc1ccc(-c2nn3c(-c4ccccn4)nnc3s2)c(Cl)c1	-3.9%	-0.11	i
CCC(CC)C(=O)NC12CC3CC(CC(C3)C1)C2	-0.4%	.	i
Cc1ccc2c(c1)CC1(CN2C)C(=O)OC2(CCCCC2)OC1=O	-2.9%	0.54	i

(continued)
SMILES	Hsc70 ATP site	WNV protease inh	MT1-MMP promoter
CC(C)Oc1ccc(C2C(C(=O)c3ccco3)=C(O)C(=O)N2CCCN(C)C)cc1 (stereo not given)	-3.3%	-0.35	i
O=C(CN1CCN(c2ccccc2)CC1)Nc1cccc(C(F)(F)F)c1	3.6%	0.6	i
COC(=O)C1C(=O)c2c([nH]c(C(=O)OCCOC(C)C)c2C)CC1C (stereo not given)	4.7%	0.04	i
O=C(O)c1cccc(Nc2nc(N3CCOCC3)nc(N3CCOCC3)n2)c1	-2.0%	-2.6	i
CCn1c(SCC(=O)c2cc(C)n(CC3CCCO3)c2C)nc2ccccc21 (stereo not given)	-4.6%	-0.41	i
Cc1c(CC(C)C)nc(N)c(C#N)c1-c1ccccc1	-4.0%	.	i
O=C(COc1ncnc2ccccc12)c1ccc2c(c1)OCCO2	-6.8%	-0.02	i
Cn1cnnc1SCC(=O)n1c2ccccc2c2ccccc21	-6.0%	-0.3	i
Cc1ccc(-n2[nH]c(C)c(C=Nc3ccc(C)cn3)c2=O)cc1	-3.3%	0.16	i
Cc1ccccc1NS(=O)(=O)c1ccc(N2CCCC2=O)cc1	-3.0%	.	i

Continuation:
SMILES	Hsc70 ATP site	WNV protease inh	MT1-MMP promoter
O=C(c1ccc(Cl)cc1)C1CCN(C(=O)NC2CCCCC2)CC1	0.4%	-0.42	i
CC(C)(C)NC(=O)COC(=O)c1ccc(S(=O)(=O)N2CCCCCC2)cc1	0.9%	-0.41	i
CN(Cc1nc2ccccc2n1C)S(C)(=O)=O	4.8%	1.4	i
CCCCc1cc2c(c(NC(=O)CC)n1)c(=O)oc1ccccc12	-7.1%	0.61	i
COC(=O)C1=CN(CC2CCCO2)C=C(C(=O)OC)C1c1cc(OC)c(OC)c(OC)c1 (stereo not given)	6.3%	1.4	i
CC(CN1CCOCC1)OC(=O)c1cccc(Br)c1 (stereo not given)	3.5%	.	i
Cc1cc(C(=O)CSc2nc3ccccc3[nH]2)c(C)n1CC1CCCO1 (stereo not given)	-0.4%	.	3.9µM*
Cc1ccc(N(C(=O)CNC(=O)c2ccco2)C(C(=O)NC2CCCC2)c2cccnc2)cc1C (stereo not given)	-1.4%	0.91	i
Cc1ccc2[nH]c(=O)c(N3CCOCC3)c(-c3ccccc3)c2c1	-4.0%	0.2	i
CCC(C)n1c(=O)c(C(=O)Nc2ccccc2S(N)(=O)=O)c(O)c2ccccc21 (stereo not given)	9.3%	1.4	i

More compounds.
SMILES	Hsc70 ATP site	WNV protease inh	MT1-MMP promoter
CCc1nc2ccccc2n1CC(O)COc1ccc(NC(C)=O)cc1 (stereo not given)	0.7%	.	i
CN(C)S(=O)(=O)N1CCC(c2ccc(F)cc2)C(COc2ccc3c(c2)OCO3)C1 (stereo not given)	-7.2%	-0.87	i
Cc1cccc(CC2CC(=O)N(c3ccccc3)C2=O)c1 (stereo not given)	-2.4%	1.1	i
CCc1c(C)nc2c(C#N)c[nH]n2c1=O	-0.5%	-0.25	i
Cc1cccc(C)c1OCCCCc1c(C)n[nH]c1C	-7.2%	1.7	i
COc1ccc(OC)c(NC(=O)CCNS(=O)(=O)c2cccs2)c1	-1.9%	0.07	i
O=C(NCc1cccs1)C(NS(=O)(=O)c1cccc2nsnc12)c1ccccc1 (stereo not given)	-1.6%	-1.6	i
Clc1ccc2c(c1)C1OCCC1C(c1ccco1)N2 (stereo not given)	2.4%	0.87	i
CC1=C(C(=O)Nc2ccccc2)C(c2ccco2)C(C#N)=C(SCC(=O)Nc2cccc(C)c2C)N1 (stereo not given)	-0.9%	1	i
Cc1ccc(-c2nn3c(C)nnc3s2)cc1NC(=O)c1cccs1	16%	-0.58	i

Exported with values under each structure: entries from further up
Order of values: Hsc70 ATP site | WNV protease inh | MT1-MMP promoter
COc1ccc(OC)c(NC(=O)CCNS(=O)(=O)c2cccs2)c1
 : -1.9% | 0.07 | i
CCc1nc2ccccc2n1CC(O)COc1ccc(NC(C)=O)cc1 (stereo not given)
 : 0.7% | . | i
Clc1ccc2c(c1)C1OCCC1C(c1ccco1)N2 (stereo not given)
 : 2.4% | 0.87 | i
CN(C)S(=O)(=O)N1CCC(c2ccc(F)cc2)C(COc2ccc3c(c2)OCO3)C1 (stereo not given)
 : -7.2% | -0.87 | i

Returning to the listing, starting 3 compounds before the break.
SMILES	Hsc70 ATP site	WNV protease inh	MT1-MMP promoter
Clc1ccc2c(c1)C1OCCC1C(c1ccco1)N2 (stereo not given)	2.4%	0.87	i
CC1=C(C(=O)Nc2ccccc2)C(c2ccco2)C(C#N)=C(SCC(=O)Nc2cccc(C)c2C)N1 (stereo not given)	-0.9%	1	i
Cc1ccc(-c2nn3c(C)nnc3s2)cc1NC(=O)c1cccs1	16%	-0.58	i
CCN(CC)C(=O)c1ccccc1NS(=O)(=O)c1ccc(C)cc1	-1.2%	.	i
Cn1cc(C2NC(=O)c3c(sc4c3CCCC4)N2)c2ccccc21 (stereo not given)	-4.7%	-0.04	i
Cc1c(C(=O)NC2CCCc3ccccc32)oc2ccc(S(=O)(=O)N3CCCC3)cc12 (stereo not given)	-3.3%	.	i
O=C(CSc1n[nH]c(=O)n1C1CC1)Nc1cc(Cl)ccc1Oc1ccccc1	-6.7%	-0.78	i
O=C(CSc1nnc(CNc2ccc(F)cc2)o1)N1CCN(C(=O)c2ccco2)CC1	-4.2%	-0.54	i
COC(=O)c1sccc1NC(=O)c1ccc(Cl)s1	-4.1%	0.31	i
CC(Oc1ccc2c(-c3ccccc3)cc(=O)oc2c1)C(=O)O (stereo not given)	-0.5%	-0.3	i
COc1ccc(NC(=O)CN(c2cccc(C(F)(F)F)c2)S(C)(=O)=O)cc1OC	-3.6%	.	i
O=C(COc1ccc(S(=O)(=O)NC2CCCCC2)cc1)NCc1cccnc1	3.8%	.	i
O=C(CC1Nc2ccccc2NC1=O)NCCCN1CCCCCC1 (stereo not given)	-1.9%	-1.2	i

Continuation:
SMILES	Hsc70 ATP site	WNV protease inh	MT1-MMP promoter
O=c1[nH]c(CN2CCCCC2)nc2c1C1(CCCCC1)Cc1ccccc1-2	0.9%	-0.48	i
COc1ccc(CN2CCN(C(=O)c3ccco3)CC2)cc1OCc1ccccc1	0.7%	-0.7	i
CCCC1(C(=O)OC)NC(c2cccc(F)c2)C2C(=O)N(CC)C(=O)C21 (stereo not given)	-0.1%	0.62	i
COCCn1c(SCC(=O)Nc2ccc(NC(=O)c3ccco3)c(OC)c2)nc2ccccc2c1=O	3.3%	.	i
CN1c2ccccc2N(C)C1c1c(O)ccc2ccccc12	6.8%	-0.21	i
CN1C(=O)c2ccccc2N(C)C1c1cccs1 (stereo not given)	-1.2%	0.27	i
CCCCOc1ccc(/C(O)=C2/C(=O)C(=O)N(CCCOC)C2c2ccncc2)cc1 (stereo not given)	6.9%	-0.32	i
CCOC(=O)c1ccc(N2C(=O)c3n[nH]c(C)c3C2c2ccc(OC)cc2)cc1 (stereo not given)	3.2%	0.37	i
COc1ccc(-c2cc(-c3cc(OC)ccc3O)[nH]n2)cc1	3.5%	.	i
COc1cc(C(C(=O)NC(C)(C)C)N(Cc2ccc3c(c2)OCO3)C(=O)c2cnccn2)cc(OC)c1OC (stereo not given)	3.2%	.	i

Continued:
SMILES	Hsc70 ATP site	WNV protease inh	MT1-MMP promoter
O=C(c1ccco1)c1cn[nH]c1-c1ccc(Cl)cc1O	3.0%	-0.12	i
COc1ccc2[nH]c(=O)c(CN(C(=O)C3CCCO3)c3cccc(C)c3)cc2c1 (stereo not given)	1.2%	-0.27	i
Cc1ccccc1N1C(=O)C2C3C=CC(C2C1=O)N(C)C3=O (stereo not given)	1.3%	.	i
Cc1ccc(Cn2cnc3sc4c(c3c2=O)CCC4)c(C)c1	1.5%	.	i
CCCCCCCC(=O)OCC(=O)[C@@]1(O)CC[C@H]2[C@@H]3CCC4=CC(=O)CC[C@]4(C)[C@H]3[C@@H](O)C[C@@]21C	-0.9%	-1.6	i
Cc1cc(C(=O)OCC(=O)N2C(C)CCCC2C)c(C)o1 (stereo not given)	2.4%	0.62	i
O=C(CSc1nc2ccccc2c(=O)[nH]1)N1CCCCC1	10%	-0.37	i
COc1ccc(N2C(=O)CCC2=O)cc1	-4.4%	1.8	i
Cc1ccc(S(=O)(=O)N2CCOCC2)cc1C(=O)N1C(=O)c2cccc(N)c2C1=O	18%	1.8	i
CC(C)(C)c1ccc(-c2nnc3sc(-c4ccccn4)nn23)cc1	2.2%	0.45	i

(further entries)
SMILES	Hsc70 ATP site	WNV protease inh	MT1-MMP promoter
CCN(CCCNC(=O)C1CCC(=O)N1Cc1ccccc1Cl)c1cccc(C)c1 (stereo not given)	6.8%	.	i
O=C1C(=O)N(CCN2CCCCC2)c2ccccc21	-1.6%	.	i
COC(=O)c1ccc(CSc2nc3c(cnn3-c3ccc(Cl)cc3)c(=O)[nH]2)o1	-10%	-0.91	i
COC(=O)NCC(C)OC(=O)Nc1cccc(Cl)c1 (stereo not given)	-7.6%	-0.63	i
CCc1cccc(NC(=O)C2CCN(S(=O)(=O)c3cccs3)CC2)c1	-7.1%	.	i
COc1ccc(Cn2c3nc4ccccc4nc3c3c(=O)n(Cc4ccco4)c(C)nc32)cc1	-12%	0.99	i
CC1CN(C(=O)c2cc3cc(Cl)cc(Cl)c3oc2=O)CC(C)O1 (stereo not given)	-1.1%	-1.8	i
CCCCOc1cccc(C(=O)Nc2ccc(N3CCN(CC)CC3)cc2)c1	0.1%	0.94	i
COc1ccc(C)c(Cn2c(-c3nonc3N)nc3ccccc32)c1	3.2%	-0.58	i
COc1c(F)c(F)c(C(=O)O)c(Nc2ccc(C)cc2)c1F	-0.4%	.	i
CC1=Nc2ccccc2N=C(NC(=O)CSc2nnnn2-c2ccccc2)C1c1ccccc1 (stereo not given)	-4.9%	-0.59	i
O=C(NCCCn1ccnc1)c1cn(Cc2ccc(F)cc2)nn1	-2.6%	0.23	i

Assay outcomes: PubChem, several laboratories
